# High-throughput results (PubChem BioAssay)
# UCH37 DUB inh: blocks the human deubiquitinase UCH37; Q9Y5K5; purified proteasome/UCH37, Ub-AMC cleavage fluorescence; inhibition, % (test concentration not listed); 330,000 compounds, 0.33% hits;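 active = mean of two replicates above 20%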;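 also: 0% = compound-free wells with enzyme and 100% = wells lacking proteasome; stock transfer was 100 nL into about 20 µL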
#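 System: Proteasome-associated human UCH37 deubiquitinase; Input: 0.15 nM proteasome in added enzyme buffer; Also added: Ub-AMC substrate from 1 µM stock; Incubation: 30 min compound-proteasome preincubation then 25 min substrate reaction, room temperature; Detection: fluorescence, ex 355 nm, em 460 nm; Read-out: % inhibition of Ub-AMC cleavage fluorescence; Benchmarks: no-proteasome and no-compound wells.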
# E coli growth: inhibitors of Escherichia coli growth; OD600, 23 h; hits give low values; OD600 absorbance (no concentration beside the values); 330,000 compounds, 0.21% hits; AID 1053175;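 active = OD600 absorbance below the run mean of sample wells minus 3.6 SD, in any replicate, cut at about 0.56 in these data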;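 also: stock transfer was 300 nL into about 60 µL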
# LANA-H2B inh: blocks KSHV LANA binding to histone H2A/H2B | inhibition, % (concentration not given with the values) | cell-free LANA-H2A/H2B peptide, fluorescence polarization | 320,000 compounds, 0.6% hits | AID 2629; in the data active = inhibition mostly above about 10%, no sharp cut-off; inactive = mostly below about 6.7%;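 also: stock transfer was 7.5 nL into about 10 µL; 0% = median of vehicle wells and 100% = median of positive control wells; one replicate is shown; the record names a cut of 25% in any replicate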
# Target sequence (Q9QR71 whole entry, looked up): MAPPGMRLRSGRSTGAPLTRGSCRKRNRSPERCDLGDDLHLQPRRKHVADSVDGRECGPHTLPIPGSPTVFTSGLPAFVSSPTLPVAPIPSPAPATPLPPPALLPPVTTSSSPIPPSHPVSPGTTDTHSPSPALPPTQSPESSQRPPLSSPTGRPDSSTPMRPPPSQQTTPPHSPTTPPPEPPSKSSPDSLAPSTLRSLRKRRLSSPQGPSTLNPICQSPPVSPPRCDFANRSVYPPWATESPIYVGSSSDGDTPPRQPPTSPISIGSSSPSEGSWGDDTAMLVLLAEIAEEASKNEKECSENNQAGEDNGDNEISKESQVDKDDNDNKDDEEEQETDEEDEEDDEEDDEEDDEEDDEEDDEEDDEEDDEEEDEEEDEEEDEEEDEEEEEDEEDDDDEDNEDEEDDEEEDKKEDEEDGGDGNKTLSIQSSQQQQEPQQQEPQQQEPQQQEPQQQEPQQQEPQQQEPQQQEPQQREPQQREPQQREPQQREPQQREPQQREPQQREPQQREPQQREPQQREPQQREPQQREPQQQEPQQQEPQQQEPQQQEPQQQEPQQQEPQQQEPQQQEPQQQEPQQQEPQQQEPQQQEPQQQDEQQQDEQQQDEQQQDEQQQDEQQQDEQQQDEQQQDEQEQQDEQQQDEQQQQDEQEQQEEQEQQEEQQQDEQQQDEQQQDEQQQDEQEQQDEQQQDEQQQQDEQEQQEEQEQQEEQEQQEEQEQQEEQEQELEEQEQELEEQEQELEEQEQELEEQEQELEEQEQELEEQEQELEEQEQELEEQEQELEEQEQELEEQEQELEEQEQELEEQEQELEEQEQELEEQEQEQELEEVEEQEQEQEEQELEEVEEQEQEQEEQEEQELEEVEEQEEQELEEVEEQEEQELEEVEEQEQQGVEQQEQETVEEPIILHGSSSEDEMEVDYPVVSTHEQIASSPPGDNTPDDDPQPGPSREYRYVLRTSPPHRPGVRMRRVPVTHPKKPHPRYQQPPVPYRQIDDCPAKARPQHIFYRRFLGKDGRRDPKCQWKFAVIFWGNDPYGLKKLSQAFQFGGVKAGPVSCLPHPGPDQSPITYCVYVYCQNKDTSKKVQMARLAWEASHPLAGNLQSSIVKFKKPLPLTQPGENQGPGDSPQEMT
# FGF22 binding: FGF22 (human) thermal shift binding; AID 651658; 340,000 compounds, 1.5% hits; calls only at 9.99 µM; recombinant FGF22 thermal shift, SYPRO orange fluorescence; percent of sucrose octasulfate shift, DMSO zero; Q9HCT0;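 active = melting point raised past a set limit in the mean and every replicate; three in four hits are not shown here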
# ALR H2O2 inh: blocks human ALR sulfhydryl oxidase activity; purified ALR, DTT oxidation, H2O2 HRP-luminol luminescence; 290,000 compounds, 3.8% hits; P55789; inhibition, % (concentration not given with the values);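 active = mean and each replicate at 75% or more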;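 also: stock transfer was 7.5 nL into about 7.5 µL; 0% = neutral wells and 100% = wells with inactivated enzyme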
# HNF4A DNA FP: change in binding of human HNF4 alpha to DNA. P41235. HNF4a-FITC DNA binding, fluorescence polarization, 1 h. activity change, % at 10 µM. 360,000 compounds, 0.3% hits; in the data active = activity change above about 30%, passing the limit was not always enough;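 also: controls were the assay level and a saturating level of protein; the project sought stronger binding though the title names inhibitors; some compounds called inactive have numbers as strong as hits; positive values seem to mean higher polarization but the record does not say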
# B2AR ag: agonists of human beta-2 adrenergic receptor inducing internalization; response, % (no concentration beside the values); 340,000 compounds, 0.43% hits; Am2.2-beta2AR cells, FAP receptor internalization, flow cytometry; reference of the scale not given here; P07550; AID 504454;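 active = response above a set limit, near 3 SD of response in nonfluorescent compounds, cut at about 42% in these data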;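 also: stock transfer was 100 nL into about 11 µL; a reference agonist was the positive control; negative values mostly stem from fluorescent compounds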
# Starred values were filed as active, the others as inactive; i = inactive; x = not tested or not shown. These rows are one share of the data; rates above refer to the full screens.
SMILES,UCH37 DUB inh,E coli growth,LANA-H2B inh,FGF22 binding,ALR H2O2 inh,HNF4A DNA FP,B2AR ag
O=C(CNC(=O)c1ccc(F)cc1)Nc1ccccc1C(F)(F)F,2.8,0.69,1.9,i,0,-1.7,-4
COc1cnn(-c2ccc(Br)cc2)c(=O)c1SCc1ccccc1,0.6,0.69,-1.5,i,1,1.6,-5
CC(C)(C)OC(=O)N[C@@H](Cc1ccccc1)C(=O)N1CCC(C(=O)O)CC1,5.2,x,-0.8,x,-1,-1.3,-116
Cc1cc2cc(C)c(NCCNC(=O)c3ccccc3)nc2cc1C,-22,0.64,3.2,i,30,0.6,-2
Cc1cc(C(=O)CCC(=O)NCc2ccccc2F)c(C)s1,-0.1,0.63,-1.0,i,x,-0.1,3
CNC(=S)N(CCc1c(C)[nH]c2ccccc12)Cc1cc(OC)c(OC)c(OC)c1,3.7,0.71,-0.5,i,x,-2.9,0
C=CC[C@@H](CC(=O)N[C@@H](CO)Cc1ccccc1)C(=O)N[C@H](C)COC(=O)[C@@H](CC=C)Cc1ccc(F)cc1,0.8,x,-0.6,i,3,2.0,3
O=C(N[C@@H](Cc1ccccc1)C(=O)N1CCN(S(=O)(=O)c2ccc(F)cc2)CC1)c1ccco1,-0.4,0.68,x,i,x,-1.0,-1
CCn1cc(-c2cc(C(=O)O)c3ccccc3n2)cn1,-243,0.69,0.6,i,-1,14,2
O=C(/C=C/c1ccc2c(c1)OCO2)c1ccco1,4.9,0.65,0.4,x,-5,-1.0,1
Cn1c(N2CCN(C(=O)NCc3ccccc3)CC2)nc2ccccc21,0.2,0.67,1.6,x,x,-1.6,4
CCCCCCOc1ccc(N2C(=O)CC(SC(=NCC)NCC)C2=O)cc1 (centres undefined),0.2,0.66,4.6,i,x,0.8,-8
CCC(Sc1nc2ccccc2c(=O)[nH]1)C(=O)O (centres undefined),0.2,0.69,3.1,x,1,2.2,0
COc1ccc(NC(=O)/C(C#N)=C/c2ccc(Br)o2)cc1,4.0,0.76,-1.6,x,-9,5.0,-2
COc1ccccc1CNC(=O)CN1C(=O)CSc2ccc(S(=O)(=O)N3CCCC3)cc21,0.1,0.66,-0.4,i,-7,2.5,-3
Cc1nc2ccc(S(=O)(=O)NCC(=O)N3CCCC(C)C3)cc2s1 (centres undefined),-3.7,0.75,-4.4,x,-9,-2.7,2
Cc1cc(C(=O)NC2CCCCC2)c(C)o1,x,x,-6.4,i,x,-1.7,1
O=C(NCc1ccccn1)Nc1ccc(Br)cc1,4.6,0.64,-0.5,i,-1,-0.3,-2
O=C(CN(c1ccccc1)S(=O)(=O)c1ccccc1)NCCSc1ccccn1,4.0,0.68,-0.9,i,-8,0.7,7
C=CCOC(=O)C1=C(C)N=c2s/c(=C3\C(=O)N(CC(=O)O)c4ccccc43)c(=O)n2C1c1ccc(OC)cc1 (centres undefined),x,x,3.0,i,63,2.2,0
OC(COc1ccccc1)Cn1c2ccccc2c2ccccc21 (centres undefined),1.5,0.66,-2.9,x,1,-1.1,1
N#C/C(=C/c1ccco1)c1nc2ccccc2s1,4.5,0.7,2.3,x,-9,3.9,-2
CCCOC(=O)c1ccc(Cl)c(NC(=O)c2ccc(-c3ccccc3)cc2)c1,4.1,0.69,-1.2,x,0,0.5,14
CCc1cccc2c(C(=O)CSc3nncn3C)c[nH]c12,1.9,0.68,3.4,i,x,-1.1,5
CN(C)/C=N/C(=S)Nc1ccc(F)cc1,x,x,3.1,x,0,-0.2,3

# (cont.)
SMILES,UCH37 DUB inh,E coli growth,LANA-H2B inh,FGF22 binding,ALR H2O2 inh,HNF4A DNA FP,B2AR ag
C=C(C)C1CC=C(CN2CCC(O)CC2)CC1 (centres undefined),1.0,0.67,0.5,x,-13,-1.8,5
CCOC(=O)N1CCN(S(=O)(=O)c2ccc(C)cc2)C1,4.1,0.69,-0.8,i,-9,-1.0,-7
CCC(C)(C)NC(=O)C(c1ccccc1)N(Cc1cccs1)C(=O)Cn1nnc2ccccc21 (centres undefined),3.4,0.71,-2.4,x,8,2.1,1
Cc1nc(NC2=NCN(Cc3cccnc3)CN2)nc2ccccc12,2.0,0.7,x,x,x,2.9,-4
CCCCN(C)C(=O)c1nc2ccccn2c1CNCCCn1nnc2ccccc21,1.0,0.71,1.2,i,-4,-3.2,-5
CC(c1ccc(Cl)cc1)n1c(-c2ccc3ccccc3n2)n[nH]c1=S (centres undefined),-1.2,0.67,1.8,i,8,3.0,-1
O=C(O)c1cccc2c1-c1c(cccc1[N+](=O)[O-])C2,14,0.71,x,i,x,2.0,-1
Cc1cc(C)c(NS(=O)(=O)c2ccc(NC(=O)/C=C/C(=O)O)cc2)c(C)c1,5.5,0.73,3.7,i,5,x,x
COc1ccc(NC(=O)c2sc3nc(C)nc(N4CCN(c5ccccn5)CC4)c3c2C)cc1Cl,-9.1,0.65,1.1,i,-8,0.4,16
COc1ccc(-n2c(Cc3cccn3C)nnc2SCC(=O)Nc2cccc(F)c2)cc1,-2.3,0.78,0.3,i,-1,2.8,-4
NS(=O)(=O)c1ccc(CCNC(=O)CSc2nc3ccsc3c(=O)n2CCCCC(=O)O)cc1,-1.6,0.71,3.8,i,x,6.3,7
Cc1ccc(Cn2c(=N)n(CC(=O)c3ccccc3)c3ccccc32)cc1,5.4,0.66,-4.7,i,-26,2.4,58*
c1ccc(N2CCN(c3nc(-c4ccccn4)nc4ccccc34)CC2)cc1,1.7,0.66,2.5,x,61,3.3,-9
CSc1sc(C(=O)NC(=O)NCc2ccncc2)c(C)c1-c1ccon1,-5.0,0.64,2.8,i,-18,0.4,2
COC(=O)c1[nH]c2cccc(OC)c2c1NC(=O)CN1CCOCC1,-15,0.76,1.8,x,1,-4.3,-7
O=C(NC1CC2CCC(C1)N2C(=O)NCc1ccccc1)NC12CC3CC(CC(C3)C1)C2 (centres undefined),2.2,0.62,-2.3,x,5,-3.2,-10
O=C(CN1CCSc2ccccc21)NCCCc1ccccc1,0.5,0.69,0.0,i,x,-3.9,9
O=[N+]([O-])c1ccc2[nH]c(O)c(N=NC(=S)NCC3CCCO3)c2c1 (centres undefined),3.0,0.69,x,x,x,2.1,6
CCOC(=O)N1CCN(C(=O)COc2cccc3c2CCN(Cc2ccc(F)cc2)C3=O)CC1,0.1,0.66,1.2,x,-3,2.2,-4
Cc1cccc(CN2CCC(Oc3ccc(C(=O)N4CCCCC4)cc3)CC2)c1,3.1,0.71,-1.6,x,8,7.3,12
OCc1nc2ccccc2n1CC(O)COc1ccccc1 (centres undefined),3.5,0.7,2.5,x,-7,5.4,-2
CC(C)C[C@H]1CN([C@@H](CC(C)C)CN2CCCC2CN2C(=S)NC[C@@H]2Cc2ccc(O)cc2)C(=S)N1CC1CCCCCC1 (some centres undefined),x,x,x,i,x,-2.5,-3
COC(=O)c1ccc(C)c(-n2c(=O)n(Cc3ccccc3)c(=O)c3[nH]cnc32)c1,5.2,0.66,6.9,i,-6,3.4,14
Cc1cc(C)c(S(=O)(=O)N2CCOC2CNC(=O)C(=O)NCc2cccnc2)c(C)c1 (centres undefined),-2.6,0.72,-6.2,i,-2,-1.0,5
Cc1cccc(Nc2ccncc2S(N)(=O)=O)c1,4.3,0.63,0.2,i,-9,-5.0,-6

# Looked up above.
# Cc1ccc(Cn2c(=N)n(CC(=O)c3ccccc3)c3ccccc32)cc1 – UCH37 DUB inh: 5.4
# c1ccc(N2CCN(c3nc(-c4ccccn4)nc4ccccc34)CC2)cc1 – B2AR ag: -9
# CCOC(=O)N1CCN(C(=O)COc2cccc3c2CCN(Cc2ccc(F)cc2)C3=O)CC1 – E coli growth: 0.66
# CSc1sc(C(=O)NC(=O)NCc2ccncc2)c(C)c1-c1ccon1 – ALR H2O2 inh: -18
# CCOC(=O)N1CCN(S(=O)(=O)c2ccc(C)cc2)C1 – HNF4A DNA FP: -1.0

# Back to the main list, repeating the 2 entries before the break.
SMILES,UCH37 DUB inh,E coli growth,LANA-H2B inh,FGF22 binding,ALR H2O2 inh,HNF4A DNA FP,B2AR ag
Cc1cc(C)c(S(=O)(=O)N2CCOC2CNC(=O)C(=O)NCc2cccnc2)c(C)c1 (centres undefined),-2.6,0.72,-6.2,i,-2,-1.0,5
Cc1cccc(Nc2ccncc2S(N)(=O)=O)c1,4.3,0.63,0.2,i,-9,-5.0,-6
O=C1CCCCC(=O)c2ccccc2N1,1.6,0.71,-1.7,x,-7,1.3,-2
COc1ccccc1CN1Cc2cccc3c2[C@@H](CC1=O)[C@H](O)[C@H](O)C3,0.1,x,-0.5,i,3,2.8,7
C=CC[C@H](CC(=O)N(CCO)Cc1ccccc1)C(=O)N[C@H](C)COC(=O)[C@@H](CC=C)Cc1ccc(F)cc1,-0.9,x,1.4,i,2,-1.8,0
Cc1cc[n+](-c2[nH]c(=O)sc2/C=N/N=C(\[O-])c2ccncc2)cc1,x,x,-3.8,i,-4,-12,-3
CCCn1nnc(NC(=O)COc2ccc(CC)cc2)n1,3.1,0.69,-0.4,x,-23,-3.9,-2
CC(C)(C)c1ccc(OC(=O)c2cccnc2)cc1,3.0,0.71,-2.9,x,x,-2.3,-5
COc1ccc(N(C)C(=O)c2cc3c(s2)-c2ccccc2S(=O)(=O)C3)cc1,7.5,0.67,-2.2,i,-5,0.5,5
O=c1c2ccccc2oc2ccc(C#CC3(O)CCCCC3)cc12,-204,0.68,-1.0,i,-3,2.7,11
COc1ccc(C)cc1NC(=O)C(Sc1nnc(Nc2ccccc2F)s1)c1ccccc1 (centres undefined),2.6,0.67,-4.6,i,-19,1.6,-8
CSc1ccccc1NC(=O)c1cccc(S(=O)(=O)N2CCN(C)CC2)c1,0.7,0.69,1.6,i,-1,1.6,-9
CCCCn1nc(-c2ccccc2)c2nc3ccccc3nc21,-64,0.64,25*,x,-6,x,x
CCCc1c(C)[nH]c2ccc(NC(C)=O)cc2c1=O,-18,0.67,-6.7,x,-12,-3.5,-2
O=C(C1=NN[C@@H]2C(=O)N(Cc3ccccc3)C(=O)[C@H]12)c1ccc(F)cc1,x,x,-10,i,31,-6.2,-3
O=C(Cn1cnc2c(cnn2-c2ccc(F)cc2)c1=O)OCc1ccccc1,2.2,0.7,4.5,x,-6,1.9,2
COc1ccc([C@@H]2[C@@H]3C(=O)N(C(C)(C)C)C(=O)[C@@H]3[C@]3(Cc4ccccc4)C(=O)N(c4cccc(Cl)c4)C(=O)N23)cc1,-0.4,x,4.5,i,3,0.3,-7
Cc1ccc(C)n1-n1cnc2sc3c(c2c1=O)CCC3,3.7,0.66,-2.6,x,4,-0.3,8
COC(=O)c1cn(NC(=O)Cc2ccc(Cl)cc2)c(=O)c2ccccc12,-5.1,0.71,-4.5,x,2,0.5,-2
Cc1cc(NC(=O)Cn2nc(C(=O)O)c3ccccc3c2=O)c([N+](=O)[O-])cc1C,5.5,0.64,1.4,i,-2,4.6,-4
Nc1cc2nn(-c3ccccc3)nc2cc1Cl,-105,0.71,x,i,x,0.8,-2
COC(=O)C1=C(C)NC2=C(C(=O)CC(C)(C)C2)C1c1cnn(C)c1C (centres undefined),-130,0.71,1.1,i,1,1.1,2
Cc1nn(C)cc1C(C)NC(=O)c1cc(COc2ccc(F)c(F)c2)on1 (centres undefined),1.4,0.71,1.9,i,-10,2.5,0
COc1ccc(-c2nn(-c3ccccc3)cc2CNCCN2CCOC2=O)c(F)c1,-12,0.69,-2.9,i,2,-4.7,0
Cn1c(CNc2nc(-c3ccccc3)cs2)nnc1SCC(=O)OC1CCCCC1,1.8,0.68,-2.6,x,5,-0.5,5
CC(C)CCOc1ccc(C(CC(N)=O)C(=O)O)cc1 (centres undefined),4.1,0.71,-0.8,x,-8,-0.1,-7
CC(=O)N/C(N)=N/c1nc(=O)c2ccccc2s1,-3.2,0.63,-0.5,i,9,4.1,-4
COC(=O)c1c(NS(=O)(=O)c2ccccc2)csc1C,0.1,0.65,0.8,i,-3,-0.4,0
O=C(NCc1ccco1)c1cnc2sccn2c1=O,7.5,0.71,6.3,i,-3,-5.1,13
Cc1cccc(N2CCN(S(=O)(=O)c3ccc4[nH]c(=O)c(=O)[nH]c4c3)CC2C)c1 (centres undefined),2.2,0.65,-3.6,x,44,x,x
